# Source: PubChem
# HIV Env fusion: inhibitors of HIV Env-mediated cell fusion; AID 651610; HeLa-JRFL Env/CEM21 cell fusion, luciferase; actives 1.1% (n = 360,000); inhibition, % at 12.3 µM;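 active = mean replicate inhibition score of at least 50 and every replicate individually at or above 50; inconclusive = only one of the two criteria met; inactive = mean below 50 and not all replicates reaching 50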;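 note: 0% = plate neutral controls and 100% = maraviroc near 300 nM; one replicate is shown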
# MT1-MMP act inh: blocks activation of human MT1-MMP. P50281. HT1080 RFP-PRO-GFP cells, GFP/RFP ratio fluorescence, overnight; percent of plate control window, DMSO zero. GFP/RFP ratio change, % at 20 µM. actives 0.061% (n = 360,000). AID 651647;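 active = GFP/RFP ratio change of at least 30% with cell ATP level not reduced by more than half and red fluorescence within 50% of control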; note: strong numbers were not always called active
#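 Material – HT1080 RFP-PRO-GFP cells · Control set – DMSO wells and RFP-L50D-GFP cells · Incubation – overnight cell settling, then overnight compound exposure, 37 °C, 5% CO2 · Compound dosing – single-point 20 µM compound, 1% DMSO · Read-out – GFP/RFP fluorescence ratio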
# eIF4H inh: inhibitors of RNA binding by human eIF4H | eIF4H fluorescence polarization binding assay | inhibition, % at 35 µM | AID 2012 | actives 0.94% (n = 290,000);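 active = 50% or more with normal probe brightness, or confirmed in later tests; inconclusive = above 50% with abnormal brightness, or retests that disagree; inactive = below 50% or failed in later tests; about a fifth of its hits are not listed in these tables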;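 note: calls also rest on retests at 20 µM and on dose response follow-up; 0% = protein and probe with vehicle and 100% = probe without protein; strong numbers were not always called active; many hits fall short of the cut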
# CSC inhib: cancer stem cell inhibition; cancer stem cell-like cells viability, luminescence; inhibition, % at 7.5 µM; actives 1.1% (n = 300,000); AID 2717;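 active = mean at 75% or more and at least half the replicates too; inconclusive = mean and replicates disagree; tested in HMLE shEcad cells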;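 note: 0% = median of negative and 100% = median of positive control wells; the first replicate is given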
# Rce1 inhib: yeast Ras-converting enzyme inhibition. AID 2563. calls only. yeast membranes, quenched prenylated peptide cleavage fluorescence. actives 0.27% (n = 290,000). Q03530;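 active = fall in fluorescence gain of 50% or more versus controls, with final raw signal at or below 3038400; inconclusive = same 50% fall but final raw signal above 3038400; inactive = fall in fluorescence gain under 50%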;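 note: plate controls were neutral control wells for no effect and wells lacking membranes for full effect; tested at 10 µM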
# Target sequence (Q03530 whole entry, looked up): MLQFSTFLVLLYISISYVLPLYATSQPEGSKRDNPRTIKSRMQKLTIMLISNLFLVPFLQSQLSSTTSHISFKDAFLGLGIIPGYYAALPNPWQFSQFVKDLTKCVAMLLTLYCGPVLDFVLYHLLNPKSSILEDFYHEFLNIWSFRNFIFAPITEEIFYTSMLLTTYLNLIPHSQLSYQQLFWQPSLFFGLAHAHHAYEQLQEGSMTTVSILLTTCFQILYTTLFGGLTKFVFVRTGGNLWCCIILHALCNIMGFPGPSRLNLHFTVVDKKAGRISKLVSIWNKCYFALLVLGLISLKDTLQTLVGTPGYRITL
# UUG fidelity: modulators of start codon recognition fidelity in yeast; actives 0.13% (n = 350,000); activity score, % at 18.7 µM; AID 602363; S. cerevisiae UUG-firefly luciferase reporter, luminescence/redox ratio;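 active = replicate mean at a twofold rise or more, about +100% in these data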;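 note: firefly luciferase made from a UUG start codon reports start codon fidelity; reporter light over untreated wells divided by growth signal over untreated wells; some hits fall short of that in this replicate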
# PABP FP inh: PABP-poly(A) binding inhibition; P11940; PABP-poly(A) RNA binding, fluorescence polarization; inhibition, % at 35 µM; AID 2014; actives 1% (n = 290,000);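 active = 50% or more with normal probe brightness, or confirmed in later tests; inconclusive = above 50% with abnormal brightness, or retests that disagree; inactive = below 50% or failed in later tests; about a fifth of its hits are not listed in these tables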;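 note: calls also rest on retests at 20 µM and on dose response follow-up; controls were probe without protein and protein plus probe with vehicle; some compounds called inactive have numbers as strong as hits; many hits fall short of the cut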
# eIF4H inh retest: further read-out of eIF4H inh, marked with its call; inhibition, %; compound at 20 µM; confirmation average;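 mean of two retest wells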
# PABP FP inh retest: further read-out of PABP FP inh, marked with its call; inhibition, %; compound at 20 µM; confirmation repeats;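 mean of two retest wells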
# MT1-MMP act inh RFP: recorded beside MT1-MMP act inh, whose call it bears; RFP signal change, %; measured here: RFP expression control read;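 0 = vehicle wells; hits needed this value within 50% of zero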
# An asterisk follows results filed as active; i = inactive; u = inconclusive; x = no result given.
SMILES,HIV Env fusion,MT1-MMP act inh,MT1-MMP act inh RFP,eIF4H inh,CSC inhib,Rce1 inhib,UUG fidelity,PABP FP inh,others
CCOC(=O)c1c(C)nsc1NC(=O)c1ccco1,3,-2,-2,0,x,i,1,-10,
Cc1c(CCO)c(=O)[nH]n1S(=O)(=O)c1ccc([N+](=O)[O-])cc1,1,2,2,-8,-8,i,6,-3,
CC1CCCCC1NC(=O)/C(C#N)=C/c1ccc(F)c(F)c1 (stereo unspecified),7,4,8,-2,25,i,x,28,
COc1ccc(N(CC(=O)NC2CCCCCC2)S(=O)(=O)c2ccccc2)cc1Cl,11,3,0,0,-12,x,-20,2,
O=CNCC(=O)NC1CCCCCC1,x,-4,-2,-4,-9,i,-15,-15,
CC1=C(Sc2ccccn2)C(=O)NC(C)(C)C1,-80,0,-2,2,0,i,-7,-5,
Cc1ccc(C(=O)COC(=O)CCN2C(=O)C3C4CCC(C4)C3C2=O)cc1[N+](=O)[O-] (stereo unspecified),2,3,0,-1,5,i,-6,0,
COc1ccc(C2=Nn3c(nnc3-c3cc(C)[nH]n3)SC2)cc1,11,8,7,-2,-8,i,x,22,
Cc1cccc(NS(=O)(=O)c2ccc(C3CCCCC3)cc2)c1,31,-8,-17,-8,u,i,-17,0,
Cc1c(C(=O)N2CCCCC2)c(S(=O)(=O)NCCc2ccccc2)c(C)n1C,-2,2,-3,-1,-5,i,17,4,
O=C(COc1cccnc1[N+](=O)[O-])Nc1cccc2ccccc12,x,-5,0,x,-12,x,-9,x,
COc1ccc(C2(C(=O)Nc3ccc(C(=O)O)cc3)CCOCC2)cc1,-68,3,3,-6,-13,i,-11,0,
Cc1cc(C)cc(CC(=O)N2CCC2(C)C(=O)NS(=O)(=O)c2cccc(OC(F)F)c2)c1 (stereo unspecified),7,3,8,x,x,x,-11,x,
CCOC(=O)C(=Cc1ccc(-n2cncn2)cc1)C(=O)OCC,-33,-9,-17,-8,u,i,-18,-11,
Cc1cc(=O)n2[nH]c(SCc3ccc(Cl)cc3)nc2n1,5,-3,0,-5,15,i,-4,2,
O=C(CSc1nc(C2CCCCC2)nc2ccccc12)NCc1ccc2c(c1)OCO2,5,-6,-4,-2,x,x,x,-2,
Cc1cc(S(=O)(=O)N2CCN(Cc3ccccc3)CC2)c(C)s1,19,0,0,-6,9,i,-9,34,
CN1CCN(C(=O)CCN2C(=O)/C(=C/c3cccc(Br)c3)SC2=S)CC1,-1,10,4,-5,53,i,-20,-27,
NS(=O)(=O)c1ccc(NC(=O)Nc2cccc(Cl)c2)cc1,0,1,0,3,12,i,x,-3,
Cc1ccc(OCCCC(=O)N2CCOCC2)c(C)c1,x,-2,-2,-2,-13,i,x,-5,
COc1cc2c3nnc(-c4ccc(F)cc4)c-3cn(Cc3cccc(F)c3)c2cc1OC,x,-150,-10,u,6,i,x,-8,
CCOC(=O)CN1C2=NCCN2c2ccccc21,x,-1,5,-14,-2,i,-13,6,
COc1ccc(CCNC(=O)c2cc3c(=O)n4cccc(C)c4nc3n(CCCN3CCOCC3)c2=N)cc1,-15,-2,-4,-10,11,i,-9,-3,
O=C(c1ccc(S(=O)(=O)N2CCCC2)cc1)N1CCCC(C(F)(F)F)C1 (stereo unspecified),16,2,4,x,-6,i,-9,x,
O=C(NCc1ccccc1)C1CCCN1S(=O)(=O)c1cccc2cccnc12 (stereo unspecified),36,-4,1,-1,-7,i,-9,-16,
CCCCN(C(=O)c1ccc(NC2CC2)c([N+](=O)[O-])c1)c1c(N)n(CC(C)C)c(=O)[nH]c1=O,x,1,-6,x,-17,x,5,x,
COc1ccc(C=O)cc1CN1C(=O)c2ccccc2C1=O,-7,-3,-1,-6,3,i,-7,-5,
CC(=O)Nc1cc(N=Cc2ccc(O)cc2O)c(Cl)cc1Cl,x,-23,19,57,3,i,x,1,eIF4H inh retest=0;PABP FP inh retest=0
CCN1CCC(CN2CCNC2=S)CC1,u,2,6,x,x,x,-3,x,
NS(=O)(=O)c1ccc(CNC(=O)CSc2ccccc2)cc1,22,-2,3,-10,-11,i,-14,4,
Cc1cc(C(=O)CSc2nc(N)cc(=O)[nH]2)c(C)n1CC1CCCO1 (stereo unspecified),x,0,-11,x,12,x,-12,x,
CCN(CCCNC(=O)c1cc2c(-c3cccc(OC)c3)nn(C)c2s1)Cc1ccccc1,25,1,-4,-16,7,i,3,-6,
CSCc1cc(N(C)C)nc(SCc2ccc(Cl)c(Cl)c2)n1,x,0,-3,-3,17,i,x,-7,
O=C(NC(=S)N1CCN(c2ccc([N+](=O)[O-])cc2)CC1)c1ccc(F)cc1,7,14,2,2,18,i,-34,-6,
CCOC(=O)C1(CC2CCCCO2)CCN(C(=O)Nc2ccc(SC)cc2)CC1 (stereo unspecified),-10,-3,-2,-3,-10,i,x,4,
CCCCN(CCCC)C(=O)c1nsnc1-c1ccccc1O,17,-3,0,2,-7,i,-18,2,
Cc1cccc(-c2nc3c(c(SCC(=O)N4CCOCC4)n2)Cc2c(CO)cnc(C)c2O3)c1,x,-3,-2,0,10,i,-7,1,
Cn1c(SCc2ccccc2[N+](=O)[O-])nnc1-c1cccnc1,-5,-1,3,4,-11,i,-16,6,
COc1ccc(-n2nnnc2S(=O)(=O)CC(=O)N2CCCCC2)cc1,-66,2,1,-11,39,x,-2,0,
O=C(NCCCn1ccnc1)/C(=C\c1cccs1)NC(=O)c1ccco1,9,-6,3,-1,-23,i,-16,-9,
CN(C)/C=C(\C(=O)c1ccc(Cl)cc1)c1nnnn1-c1ccc(Cl)cc1,-84,4,1,x,x,i,-9,x,
CCN(CC)S(=O)(=O)c1cccc(NC(=O)c2ccc(-n3nc(C)cc3C)cc2)c1,67*,-8,-28,-8,1,i,1,0,
CCCN(CC(=O)Nc1ccccc1OC)CC(=O)c1c(N)n(Cc2ccccc2)c(=O)n(C)c1=O,1,-5,-7,x,x,x,-21,x,
O=C(CCl)Nc1ccccc1C(=O)Nc1ccc2c(c1)OCO2,-5,2,-3,-11,14,i,x,8,
c1ccc(COC2COC3C(OCc4ccccc4)COC23)cc1 (stereo unspecified),-11,-1,1,x,x,x,-29,x,
O=C(COC(=O)C1CCC(=O)N1)Nc1ccccc1Br (stereo unspecified),7,-2,-2,-7,-6,i,-9,53,eIF4H inh retest=0;PABP FP inh retest=0
O=C(CSc1ncnc2c1oc1ccccc12)NC1CCCCC1,-7,1,-3,8,-1,i,-12,-7,
O=C(COC(=O)/C=C/c1ccccc1Cl)NC(=O)Cc1ccccc1,-7,1,2,0,-14,i,-20,-8,
COc1cccc(-c2cnc3c(NC(C)=O)cc(-c4cc(OC)c(OC)c(OC)c4)cn23)c1,25,3,4,x,x,x,-20,x,
COc1ccccc1-c1noc(Cn2cc(S(=O)(=O)N3CCCC3)ccc2=O)n1,x,0,1,x,0,x,8,x,
# More structures
SMILES,HIV Env fusion,MT1-MMP act inh,MT1-MMP act inh RFP,eIF4H inh,CSC inhib,Rce1 inhib,UUG fidelity,PABP FP inh,others
Cc1ncc(C(=O)O)c(C(=O)O)c1N,13,-3,-1,3,4,i,-16,12,
O=C(CCC(=O)N1CCN(S(=O)(=O)c2ccc(Cl)cc2)CC1)NCc1ccccc1,x,-2,-2,-5,-14,i,11,-6,
O=C(CSc1ncccc1-c1nc2ccccc2[nH]1)NCc1ccco1,x,-13,-4,12,2,i,-21,38,
CC(C)OCCCN1CC(=O)N2[C@@H](Cc3c([nH]c4ccccc34)C2(C)C)C1=O,6,1,2,0,-15,i,6,-4,
Cc1cc(C)c(NC(=O)CNC(=O)Cc2sc(C)nc2-c2ccc(F)cc2)c(C)c1,x,-5,0,x,-7,i,x,x,
COc1ccccc1OCC#CCSc1ncccn1,6,-1,1,4,-3,x,1,8,
Cc1ccc(NC(=O)C(C)Sc2nc3nc(C)cc(C)n3n2)cc1 (stereo unspecified),x,2,2,x,3,x,-8,x,
Cc1csc(/C(C#N)=N/O)n1,x,-3,-2,-3,-9,i,-18,-13,
Cc1cc(S(=O)(=O)Nc2ccc(C(=O)NCCCN3CCCC3=O)cc2)ccc1F,10,-3,2,x,-8,i,x,x,
CCOC(=O)C1=C(COC(=O)/C=C/c2ccco2)NC(=O)NC1C (stereo unspecified),-6,3,7,x,-11,i,-5,x,
COc1ccc(S(=O)(=O)N2CCCCCC2)cc1Br,22,4,5,1,x,i,-7,7,
CC1CCCCC1NC(=S)Nc1ccc(SC(F)F)cc1 (stereo unspecified),x,-1,-6,9,22,i,-15,-2,
Cc1cc(C)c(C#N)c(SCc2c(F)cccc2[N+](=O)[O-])n1,x,3,6,-9,-5,i,x,-12,
N/C(=N\OCC(=O)Nc1ccc(F)c(Cl)c1)c1ccccc1,x,-2,-1,x,-12,x,-10,x,
CC1Cc2ccccc2N1C(=O)CSc1ccccc1 (stereo unspecified),u,-3,-3,7,x,i,-13,3,
CC1CCCN(C(=O)Cn2nnc(-c3ccc(F)cc3)n2)C1 (stereo unspecified),12,3,1,-3,-5,i,x,2,
Cc1cccc(-c2ccc3[nH]c4c(c3c2)CCN2C[C@H]3[C@H](C)ON(C)[C@H]3C[C@@H]42)c1,-20,-9,1,x,x,x,1,x,
O=C(NNc1nc2ccccc2s1)Nc1ccc(Cl)c(Cl)c1,10,-3,0,-1,39,i,x,3,
COC(=O)C1C(O)=C(C=Nc2ccc3ccccc3c2)C(=O)CC1(C)C (stereo unspecified),-15,4,4,3,-34,i,-22,0,
CC(C)NC(=O)NC(=O)COc1c(F)c(F)cc(F)c1F,x,2,0,2,-6,i,-20,4,

# Two entries drawn at random from the list so far, as already listed:
SMILES,HIV Env fusion,MT1-MMP act inh,MT1-MMP act inh RFP,eIF4H inh,CSC inhib,Rce1 inhib,UUG fidelity,PABP FP inh,others
CC1CCCN(C(=O)Cn2nnc(-c3ccc(F)cc3)n2)C1 (stereo unspecified),12,3,1,-3,-5,i,x,2,
Cc1cc(C)c(C#N)c(SCc2c(F)cccc2[N+](=O)[O-])n1,x,3,6,-9,-5,i,x,-12,

# (cont.)
SMILES,HIV Env fusion,MT1-MMP act inh,MT1-MMP act inh RFP,eIF4H inh,CSC inhib,Rce1 inhib,UUG fidelity,PABP FP inh,others
Cc1cc(OCc2cc(C(=O)N(C)C3CCOC3)no2)cc(C)c1Cl (stereo unspecified),-69,-2,-2,-13,21,i,-11,10,
COc1ccccc1/C(O)=C(\C#N)c1nc2ccccc2[nH]1,-14,4,4,7,0,i,x,0,
CCN(CC)CCCN(Cc1cc2ccc(C)c(C)c2[nH]c1=O)C(=O)NC1CCCCC1,-85,-21,-13,-2,4,i,x,-14,
CC(NCC(O)COc1ccc(Br)cc1)c1ccccc1 (stereo unspecified),19,0,0,-10,-15,i,-4,0,
COc1ccc(-c2c(C(=O)O)nc3ccccc3c2C(=O)O)cc1,-82,-3,0,-9,-17,i,-13,-3,
Cc1occc1C(=O)NNC(=O)c1nn(C)c(=O)c2ccccc12,-5,-1,3,0,3,i,x,8,
CCOC(=O)CC1C(=O)NCCN1C(=O)c1ccc(Cl)cc1Cl (stereo unspecified),5,3,4,3,x,i,-1,-6,
COc1ccc(C2C(C#N)=C(N)Oc3n[nH]c(-c4ccccn4)c32)c(OC)c1OC (stereo unspecified),x,1,6,8,0,i,-1,7,
CCc1ccc(NC(=O)CSc2ccc(-c3cccnc3)nn2)cc1,17,6,-10,-1,-9,i,-4,0,
CN(C)CCCOc1ccc(-c2cccc3nncn23)cn1,u,-6,0,x,x,x,-1,x,
CCOc1ccc(NC(=O)CC2C(=O)N(c3cccc(OC)c3)C(=O)N2CCOC)cc1 (stereo unspecified),1,-1,5,2,-16,i,9,9,
